Compound activity as filed in PubChem.
rRNA inh HTS: reduced GFP signal of wild-type E. coli, primary screen, bacterial rRNA inhibitor project, GFP/RFP fluorescence, OD600, single point. E. coli WT GFP vs humanized-ribosome RFP mutants, 24 h; hits give low values; DMSO median 0, no signal -100. GFP signal change (wild-type ribosome), % (test concentration not listed). 350,000 compounds, 1.6% hits. AID 720706, 2013;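 active = significant combined selectivity score with lowered wild-type GFP, culture density cut under 30%, mutant RFP and density less affected; inactive = any of these conditions unmet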; also: one replicate is shown; some compounds called inactive have numbers as strong as hits
HNF4A DNA FP: change in binding of human HNF4A to DNA, primary screen, biochemical, fluorescence polarization, FITC-DNA. Hepatocyte nuclear factor 4-alpha (Homo sapiens), P41235. 1 h. activity change, % at 10 µM. 360,000 compounds, 0.3% hits. AID 1224865, 2016; in the data active = activity change above about 30%, passing the limit was not always enough;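 also: controls were the assay level and a saturating level of protein; the project sought stronger binding though the title names inhibitors; some compounds called inactive have numbers as strong as hits; positive values seem to mean higher polarization but the record does not say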
Target sequence (P41235 whole entry, looked up): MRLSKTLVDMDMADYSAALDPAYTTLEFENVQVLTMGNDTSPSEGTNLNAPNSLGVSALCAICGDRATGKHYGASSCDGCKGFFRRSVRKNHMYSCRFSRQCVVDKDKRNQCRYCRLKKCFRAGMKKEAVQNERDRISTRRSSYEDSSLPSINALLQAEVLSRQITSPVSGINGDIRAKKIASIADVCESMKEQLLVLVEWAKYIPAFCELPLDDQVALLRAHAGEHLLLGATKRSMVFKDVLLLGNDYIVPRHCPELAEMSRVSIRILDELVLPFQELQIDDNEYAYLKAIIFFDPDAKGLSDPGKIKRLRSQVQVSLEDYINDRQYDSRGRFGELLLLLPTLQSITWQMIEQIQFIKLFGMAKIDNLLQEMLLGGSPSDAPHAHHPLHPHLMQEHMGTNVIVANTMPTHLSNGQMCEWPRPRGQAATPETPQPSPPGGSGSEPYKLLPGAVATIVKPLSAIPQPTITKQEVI
Vif TR-FRET: inhibitors of Vif binding to APOBEC3G peptide, primary screen, biochemical, TR-FRET, GST-Vif 1-94, biotin-A3G peptide, dose response retest (AID 1117319); TR-FRET GST-Vif / biotin-A3G peptide binding; higher % means a stronger effect; test concentration not given here; strong numbers were not always called active; one-dose inhibition, %; IC50 in µM for titrated hits; 260,000 compounds, 0.57% hits;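 active = above the screen mean plus three standard deviations and confirmed in dose response; inconclusive = results disagree or hit not tested in dose response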;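 also: Vif residues 1-94 fused to GST binding biotinylated APOBEC3G peptide 110-148; 0% = full assay without inhibitor and 100% = GST in place of GST-Vif; retest series ran down from 100 µM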
E coli growth: E. coli growth inhibition, primary screen, OD600; Escherichia coli growth, 23 h; hits give low values; OD600 absorbance (no concentration beside the values); 330,000 compounds, 0.21% hits;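 active = OD600 absorbance below the run mean of sample wells minus 3.6 SD, in any replicate, cut at about 0.56 in these data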;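 also: stock transfer was 300 nL into about 60 µL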
MLL AF4-AF9 inh: inhibitors of AF4 peptide binding to AF9, primary screen, biochemical, AlphaScreen, biotin-AF4 peptide, FLAG-AF9, single point. AID 651704, 2012. 350,000 compounds, 0.47% hits. Protein AF-9 (Homo sapiens), P42568. inhibition, % at 10 µM;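 active = every replicate reaching a set inhibition limit, whatever the replicate mean, cut at about 25% in these data; inconclusive = mean inhibition reaches that limit but some replicates miss it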;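 also: 0% = plate neutral control median and 100% = total signal loss; the record names both 10 and 1 µM as test concentration; the first replicate is given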
ALR inh: inhibitors of human ALR sulfhydryl oxidase, primary screen, biochemical, H2O2 detection, HRP-luminol luminescence, single point. FAD-linked sulfhydryl oxidase ALR (Homo sapiens), P55789. purified ALR, DTT oxidation. inhibition, % (concentration not given with the values). 290,000 compounds, 3.8% hits. AID 485317, 2010;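 active = mean and each replicate at 75% or more; inconclusive = only one of the two met; inactive = neither met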;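 also: stock transfer was 7.5 nL into about 7.5 µL; 0% = neutral wells and 100% = wells with inactivated enzyme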
Target sequence (P55789 whole entry, looked up): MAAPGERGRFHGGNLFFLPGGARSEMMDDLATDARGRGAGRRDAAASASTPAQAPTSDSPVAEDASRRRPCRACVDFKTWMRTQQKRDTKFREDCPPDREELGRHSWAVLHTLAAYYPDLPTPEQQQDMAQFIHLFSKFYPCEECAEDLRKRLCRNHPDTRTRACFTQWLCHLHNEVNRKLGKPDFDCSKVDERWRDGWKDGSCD
FGF22 binding: binders of human FGF22 protein, primary screen, FGF22 synaptogenesis inhibitor project, biophysical, thermal shift, single point; Fibroblast growth factor 22 (Homo sapiens), Q9HCT0; recombinant FGF22 thermal shift, SYPRO orange fluorescence; percent of sucrose octasulfate shift, DMSO zero; calls only at 9.99 µM; 340,000 compounds, 1.5% hits;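 active = melting point raised past a set limit in the mean and every replicate; inconclusive = no clear call; three in four hits are not shown here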
Target sequence (Q9HCT0 whole entry, looked up): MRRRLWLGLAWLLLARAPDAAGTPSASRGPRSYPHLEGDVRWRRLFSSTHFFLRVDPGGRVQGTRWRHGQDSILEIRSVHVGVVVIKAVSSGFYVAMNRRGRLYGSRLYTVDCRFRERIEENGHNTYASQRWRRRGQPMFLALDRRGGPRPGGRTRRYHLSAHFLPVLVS
rRNA inh HTS OD600: further read-out of rRNA inh HTS, marked with its call; OD600 change, %; measured here: OD600 growth;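 optical density of the mix in the first replicate; 0 = DMSO median and -100 = no signal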
rRNA inh HTS RFP: recorded beside rRNA inh HTS, whose call it bears; RFP signal change, %; measured here: RFP humanized mutant strains;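 first replicate; 0 = DMSO median and -100 = no signal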
Active calls of the source: *; i = inactive; u = inconclusive; x = no result given. Not all compounds are listed, so the mix of outcomes need not match the whole.

SMILES	rRNA inh HTS	rRNA inh HTS OD600	rRNA inh HTS RFP	HNF4A DNA FP	Vif TR-FRET	E coli growth	MLL AF4-AF9 inh	ALR inh	FGF22 binding
O=C(NCc1ccco1)c1ccc(NS(=O)(=O)c2cccc(F)c2)cc1	-1	2	1.0	0.0	-6%	0.69	1.6	-5	i
CC1=NN(C(N)=S)C(=O)C1N=Nc1cccc(C)c1 (centres undefined)	4	2	-1.7	3.1	x	0.75	-32	23	i
O=C(O)CSc1nnc(CNc2ccccc2Cl)n1-c1ccccc1	x	x	x	0.1	-1%	0.72	x	x	x
COc1c(S(=O)(=O)NCCCn2ccnc2)ccc(Cl)c1Cl	4	-1	2.5	-0.8	-3%	0.71	2.2	-1	i
NC(=O)c1ccc(NC(=O)CCC(=O)N2CCN(S(=O)(=O)c3ccc(Cl)cc3)CC2)cc1	6	-1	-0.5	-2.8	x	0.71	-5.0	-4	i
N#CC1=C2SCN(Cc3ccco3)CN2C(=O)CC1c1c(F)cccc1Cl (centres undefined)	-4	5	4.3	5.1	27%	0.78	-0.5	-34	i
CCOC(=O)c1sc(=S)n(C)c1NC(=O)c1ccccc1C	x	x	x	1.6	x	0.67	x	3	x
CCn1nc(C)cc1C(=O)Sc1cccc(Br)c1	4	8	0.8	1.4	-2%	0.68	9.0	x	i
CCOc1ccc(S(=O)(=O)N(C)c2ccc(OCC(=O)Nc3ccccc3F)cc2)cc1	-8	-8	2.4	3.2	-4%	0.7	-2.7	x	i
O=C(C[C@H]1C=C[C@H](NC(=O)C2CC2)[C@@H](CO)O1)NCc1ccccc1Cl	1	-1	-3.8	x	x	x	0.0	x	i
O=C1[C@@H]2[C@H](C(=O)N1Cc1cccnc1)[C@H]1C=C[C@@H]2C1	13	11	-3.8	-1.4	u	0.69	-73	-4	i
O=c1cc(SCc2ccccc2)nc[nH]1	x	x	x	2.7	17%	0.66	38*	x	i
COc1ccc(NC(=S)N2CCN(C)CC2)cc1	5	6	0.3	2.9	x	0.66	1.3	-8	i
CC(=O)Nc1cc(N=Cc2ccc(O)cc2O)c(Cl)cc1Cl	x	x	x	-2.7	12%	0.73	x	-9	x
Cc1ccc(C)c(OCCC(=O)OCC(=O)N(C)c2c(N)n(Cc3ccccc3)c(=O)[nH]c2=O)c1	10	4	2.7	-3.9	-5%	0.64	0.0	-8	i
Cc1ccc2nc(CCCc3nc4ccc(C)cc4[nH]3)[nH]c2c1	-22	-21	0.1	5.1	x	0.66	2.3	x	i
O=C(CCCn1c(=S)[nH]c2ccsc2c1=O)NC1CCCCC1	-11	-1	0.1	0.4	x	0.71	-1.5	26	i
COC(=O)/C=C/c1ccc2c(c1)OCO2	17	15	-1.4	0.5	5%	0.63	-2.3	-3	x
CC(CN1CCN(C)CC1)OC(=O)c1ccc(Cl)cc1 (centres undefined)	x	x	x	1.5	10%	0.65	x	-6	x
COC(=O)[C@]12CCCCC=C1N(CCC1=CCCCC1)C(=O)[C@H](CC(=O)N1CCOCC1)C2	-18	-16	2.6	-4.4	x	x	-1.7	x	i
CC=Cc1ccc2n(c1=O)C[C@H]1[C@H](CO)[C@@H](C(=O)N3CCc4ccccc4C3)N(C(=O)C3CC3)[C@@H]21 (mixture of isomers)	2	11	0.1	x	x	x	0.1	x	i
COc1cc(N2CCOCC2)ncn1	x	x	x	-0.1	-2%	0.71	x	-6	x
O=C(Nc1nnc(SCc2c(Cl)cccc2Cl)s1)C1CCCO1 (centres undefined)	-9	-4	-7.1	-3.4	-3%	0.63	-2.5	6	i
CC(C)(C)c1ccc(C2=CSC3=NCCN23)cc1	13	5	1.7	1.2	x	0.69	8.6	x	i
Cc1ccc(-c2ccc(=O)n(CC(=O)NCC3COCCO3)n2)cc1 (centres undefined)	4	13	-1.5	1.2	x	0.68	0.0	-7	i

The listing continues:
SMILES	rRNA inh HTS	rRNA inh HTS OD600	rRNA inh HTS RFP	HNF4A DNA FP	Vif TR-FRET	E coli growth	MLL AF4-AF9 inh	ALR inh	FGF22 binding
CC(=O)c1c(O)cc(O)cc1O	x	x	x	1.9	x	x	-2.4	x	i
O=C(NNC(=O)C(c1ccccc1)c1ccccc1)c1cccs1	-3	-7	-11	-0.9	29%	0.69	x	-11	x
COc1cc(-c2c(NC(=O)c3ccco3)oc3ccccc3c2=O)cc(OC)c1OC	5	3	-1.0	-1.9	x	0.63	-12	x	i
O=C1NC[C@@H](c2ccccc2)OC(=O)[C@H](Cc2ccc(F)cc2)CC/C=C/C[C@H]1CC(=O)N(CCO)Cc1ccccc1	-10	-12	-2.0	1.8	x	x	-1.5	-8	i
Fc1ccc(Oc2nc(-c3ccccn3)nc3ccccc23)cc1	-24	-28	-7.2	3.2	x	x	1.3	1	i
CCN1C(=NCCc2ccc(Br)cc2)N[C@@H](c2ccccc2)[C@H](C(=O)OC)[C@H]1C	-5	3	0.5	6.3	x	x	5.7	-1	i
COc1cccc(NC(=O)Nc2nnc(Cc3ccc(OC)c(OC)c3)s2)c1	6	8	0.3	0.7	-3%	0.68	-0.7	-18	i
Cc1ccc(OCC(O)Cn2c(N3CCCCC3)nc3c2c(=O)[nH]c(=O)n3C)cc1C (centres undefined)	17	14	4.4	-0.6	x	0.72	-0.6	-9	i
CCC(=O)Nc1ccc(Oc2ccc(NC(=O)CC)c(NC(=O)CC)c2)cc1	0	5	-0.9	2.5	-4%	0.68	-0.7	5	i
CC1CCN(S(=O)(=O)c2ccc3c(c2)N(CC(=O)NCCCN2CC(C)CC(C)C2)C(=O)CS3)CC1 (centres undefined)	-1	-4	0.1	2.9	-5%	0.67	-0.2	-1	i
CCc1cccc2c3c([nH]c12)C(CC)(CC(=O)O)OCC3 (centres undefined)	2	4	-0.8	-3.4	0%	0.7	5.2	x	i
O=C(Nc1cccc(F)c1)c1cccnc1	20	14	-2.1	2.0	x	0.68	3.3	-11	i
Cc1ccc(-c2ccc3c(c2)O[C@H](CN(C)Cc2ccccn2)[C@@H](C)CN([C@H](C)CO)S3(=O)=O)cc1	-10	-30	5.9	x	x	x	5.5	x	i
CN(CCc1ccccc1)C(=O)c1ccc(NC(=O)Cc2cccc(NC(=O)C3CCN(C(=O)C4CCCCC4)CC3)c2)cc1	-1	1	-5.7	-2.1	x	0.7	3.9	x	i
COc1ccc(C(=O)Nc2ccc(S(=O)(=O)N(C)c3ccccc3)cc2)cc1	-29	-48	-7.3	-1.7	x	0.63	-1.4	-2	i
COc1cc(/C=N/O)ccc1OCc1ccc([N+](=O)[O-])cc1	3	-2	-8.2	-1.1	2%	x	1.6	x	i
O=C(Nc1ccccc1)N1C[C@H]2[C@@H](c3ccccc31)[C@@H](CO)N2C(=O)c1cccnc1	-1	1	-1.2	x	x	x	-12	x	i
Nc1ccc(N=Nc2ccccc2)c(N)n1	-24*	1.1*	-0.6*	3.3	u	0.62	34*	x	i
Cc1ccccc1S(=O)(=O)N1[C@H](CO)[C@@H](c2ccc(-c3ccccc3)cc2)[C@@H]1C#N	-9	-46	32	x	x	x	-0.7	x	i
COc1cc2c(cc1OC)C(c1cccc([N+](=O)[O-])c1)=NCC2	15	12	4.4	-1.0	2%	0.64	1.7	-4	i
COc1cccc(S(=O)(=O)N(C)C[C@@H]2Oc3cc(C4=CCCCC4)ccc3S(=O)(=O)N([C@H](C)CO)C[C@H]2C)c1	-3	-5	-2.5	x	x	x	5.0	x	i
C[C@@H]1CN([C@H](C)CO)C(=O)c2cccc(NC(=O)Nc3ccc4c(c3)OCO4)c2O[C@@H]1CN(C)Cc1ccc(C(=O)O)cc1	7	5	0.2	x	x	x	3.0	x	i
CCCC(=O)Nc1ccc2c(c1)C(=O)N(C)[C@H]1CC[C@H](CC(=O)O)O[C@@H]1CO2	-1	2	-3.1	x	x	x	-5.5	x	i
CCNC(=O)C[C@@H]1CC[C@@H]2[C@H](COC[C@@H](O)CN2C(=O)CC)O1	1	8	4.0	x	x	x	-4.5	x	i
CC(=O)N1CCC(=NNc2ncc(C(F)(F)F)cc2Cl)CC1	5	7	-2.0	-2.3	x	0.61	0.6	4	i

Already shown: 4 of the compounds above.
SMILES	rRNA inh HTS	rRNA inh HTS OD600	rRNA inh HTS RFP	HNF4A DNA FP	Vif TR-FRET	E coli growth	MLL AF4-AF9 inh	ALR inh	FGF22 binding
O=C(Nc1cccc(F)c1)c1cccnc1	20	14	-2.1	2.0	x	0.68	3.3	-11	i
Cc1ccc(-c2ccc3c(c2)O[C@H](CN(C)Cc2ccccn2)[C@@H](C)CN([C@H](C)CO)S3(=O)=O)cc1	-10	-30	5.9	x	x	x	5.5	x	i
CN(CCc1ccccc1)C(=O)c1ccc(NC(=O)Cc2cccc(NC(=O)C3CCN(C(=O)C4CCCCC4)CC3)c2)cc1	-1	1	-5.7	-2.1	x	0.7	3.9	x	i
COc1ccc(C(=O)Nc2ccc(S(=O)(=O)N(C)c3ccccc3)cc2)cc1	-29	-48	-7.3	-1.7	x	0.63	-1.4	-2	i

Other results follow.
SMILES	rRNA inh HTS	rRNA inh HTS OD600	rRNA inh HTS RFP	HNF4A DNA FP	Vif TR-FRET	E coli growth	MLL AF4-AF9 inh	ALR inh	FGF22 binding
CCCN(C)C[C@@H]1Oc2ncc(C#CCOC)cc2C(=O)N([C@H](C)CO)C[C@@H]1C	6	3	-2.9	x	x	x	-5.9	x	i
Nc1ccccc1SSc1ccccc1N	10	10	-1.1	2.0	30%	0.63	-6.8	x	i
COc1ccc(C2(c3ccc(OC)cc3)NC(=O)N(CC(=O)NCC(C)c3ccccc3)C2=O)cc1 (centres undefined)	-15	-11	0.1	-0.1	18%	0.7	1.1	-2	i
CSC1=C(C#N)C(=O)NC(c2ccccc2O)S1 (centres undefined)	2	0	0.4	1.5	u	0.59	-3.2	98*	i
CCN(CC)c1ccc(NC(=O)c2ccccc2Br)cc1S(=O)(=O)Nc1ccccc1OC	0	-2	-3.2	-0.6	x	0.72	8.5	x	i
Cc1nnc(SCC(=O)c2ccc([N+](=O)[O-])cc2)s1	7	12	-3.4	-0.5	5%	0.69	0.6	-15	i
CC1CCc2c(sc3nc(SCC(=O)O)n(-c4ccccc4)c(=O)c23)C1 (centres undefined)	0	16	3.9	2.3	4%	0.7	-31	3	i
Cc1cc(OCC(=O)N2CCCCCC2)ccc1[N+](=O)[O-]	-7	-12	-4.1	2.1	0%	0.68	10	-12	i
COc1ccccc1N1C(=S)N=C(Nc2c(C)cccc2C)C12CCCC2	-14	-12	-1.1	3.6	x	0.68	0.7	1	i
CCOC(=O)c1c(C)noc1-c1ccc(Br)o1	4	11	-2.4	-0.4	-5%	0.66	0.4	x	x

Single values from above.
rRNA inh HTS OD600 result of `COc1cc2c(cc1OC)C(c1cccc([N+](=O)[O-])c1)=NCC2` stands at 12
rRNA inh HTS OD600 result of `O=C(NNC(=O)C(c1ccccc1)c1ccccc1)c1cccs1` stands at -7
rRNA inh HTS RFP result of `Cc1ccc2nc(CCCc3nc4ccc(C)cc4[nH]3)[nH]c2c1` stands at 0.1
